Screening data: PubChem, National Center for Advancing Translational Sciences (NCATS)
Six1-Eya2 inh: inhibitors of human Six1/Eya2 interaction | Q15475+O00167 | AlphaScreen GST-Six1/His-Eya2 binding, biochemical; stronger effect = lower value; control for the full effect not named in the record | activity change, % (no concentration beside the values) | 360,000 compounds, 0.56% hits; in the data active = activity change below about -65%; inconclusive = about -30% to -65%; inactive = above about -30%; also: % is scaled to controls: 0 for no effect and ±100 for the full control effect
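AlphaScreen with GST-Six1 and His-Eya2 (5X mix: 250 nM and 500 nM), glutathione donor and nickel acceptor beads; buffer 50 mM Tris pH 8.0, 300 mM NaCl, 1 mM TCEP; 1 h at 37 C in the dark.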
gsp antagonist: antagonists of gsp mutant (McCune-Albright syndrome). Potency, µM (series often up to 76.9 µM), for inactives: at the top dose activity change, negative = inhibition, hits mostly inhibitors. gsp-mutant cells, cAMP HTRF, 30 min; control for the full effect not named in the record. 340,000 compounds, 0.4% hits; active = falling curve of any shape with a large fitted effect; inconclusive = falling curve, mostly with a smaller effect; inactive = flat or rising curve; cell line not stated here;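 also: intracellular cAMP measured with PDE inhibitor Ro 20-1724 present during compound exposure; potency is read from the fitted curve at half-maximal effect; % is scaled to controls: 0 for no effect and ±100 for the full control effect; nearly all actives have a fitted effect of over 65% in size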
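Cells in G418 medium, seeded 16-24 h, 37C; buffer exchange to DPBS + 1 mM CaCl2, 0.5 mM MgCl2, 0.05% BSA; cpds in DMSO + […] (300 uM stock), 30 min 37C; HTRF cAMP detection.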
D2 agonist: agonists of human D2 dopamine receptor (beta-arrestin) | P14416 | DiscoveRx PathHunter D2 beta-arrestin, luminescence, 90 min; 100% = 57 uM dopamine signal | activation, % (test concentration not listed) | 360,000 compounds, 0.084% hits | AID 624465; in the data active = activation above about 40%; inconclusive = about 15% to 40%; inactive = below about 15%; also: compound concentration not given in the record; the text of the record calls up to 30% inactive
Target sequence (P14416 whole entry, looked up): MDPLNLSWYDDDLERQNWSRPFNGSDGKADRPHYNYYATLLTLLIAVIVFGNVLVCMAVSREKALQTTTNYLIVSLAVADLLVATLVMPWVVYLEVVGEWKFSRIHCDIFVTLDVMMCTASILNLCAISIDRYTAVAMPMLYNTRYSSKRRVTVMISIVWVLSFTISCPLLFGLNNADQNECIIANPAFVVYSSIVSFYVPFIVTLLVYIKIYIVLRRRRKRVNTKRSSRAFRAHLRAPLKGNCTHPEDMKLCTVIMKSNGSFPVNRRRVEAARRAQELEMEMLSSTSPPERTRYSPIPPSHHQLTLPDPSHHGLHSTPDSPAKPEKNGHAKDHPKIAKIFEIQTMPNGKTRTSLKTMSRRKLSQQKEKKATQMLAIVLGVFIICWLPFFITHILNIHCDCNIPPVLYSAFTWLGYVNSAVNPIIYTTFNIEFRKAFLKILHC
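DiscoveRx PathHunter D2 beta-arrestin cells (2,100/well) attached overnight, then compound-stimulated 90 min at 37 C in HBSS/10 mM HEPES/0.1% Tween-20 buffer; beta-galactosidase complementation read by luminescence after 1 h at ambient temperature. Dopamine 57 uM final (EC100) as control.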
D2 potentiator: potentiates the human D2 dopamine receptor allosterically; P14416; DiscoveRx D2 beta-arrestin cells, luminescence, 90 min; 100% = 57 uM dopamine signal; potentiation, % (no concentration beside the values); 360,000 compounds, 0.23% hits; AID 624464; active = potentiation of 50% or more; inconclusive = 30% to 50%; inactive = 30% or less;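 also: compound concentration not given in the record; tested on top of an EC20 dose of dopamine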
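D2 cells co-treated with compound plus 50 nM dopamine (EC20) for 90 min at 37 deg C to detect potentiation. Beta-arrestin recruitment was read as enzyme-fragment luminescence after 1 h at ambient temperature. Full response was set by 57 uM dopamine.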
gsp ag: activates gsp, the McCune-Albright syndrome mutation. 340,000 compounds, 0.13% hits. Potency, µM (doses to about 76.9 µM), for the others: at the highest dose activation (cAMP increase), usual class: activators. AID 624287. gsp mutant cells, cAMP HTRF, 30 min; control for the full effect not named in the record; active = well fitted activation curve with a large enough effect; inconclusive = small, poorly fitted or top-dose-only effect, or another doubt; inactive = no such curve, though single readings can be large or run the other way; cell line not stated here;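 also: phosphodiesterase inhibitor Ro 20-1724 added with compounds to block cAMP breakdown; potency is read from the fitted curve at half-maximal effect; nearly all actives have a fitted effect of over 60% in size; about a fifth of the inactives were tested at one dose only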
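Cells stably selected in G418 were plated at 2000/well, grown 16-24 hr, then given compounds in DMSO with the PDE inhibitor […] (300 uM solution added) for 30 min at 37C; cAMP was read by HTRF.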
CtBP-E1A blk: inhibitors of CtBP/E1A interaction; AlphaScreen GST-E1A/His-CtBP binding, 1536-well; stronger effect = lower value; control for the full effect not named in the record; activity change, % (no concentration beside the values); 340,000 compounds, 0.49% hits; AID 651724; in the data active means activity change below about -65%; inconclusive means about -30% to -65%; inactive means above about -30%; also: % is scaled to controls: 0 for no effect and ±100 for the full control effect
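Homogeneous bead-based format: GST-tagged E1A captured on glutathione donor beads, His-tagged CtBP on nickel acceptor beads; compounds precede bead addition by 2 h at 37 °C.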
Starred values were filed as active, the others as inactive; ? = inconclusive; · = no result given; [ ] = remark or other dose.

SMILES | Six1-Eya2 inh | gsp antagonist | D2 agonist | D2 potentiator | gsp ag | CtBP-E1A blk
Cc1occc1C(=O)N/N=C/c1ccc(-c2ccccc2)cc1 | -13 | 1% | 4.3 | -2 | -9% | 1
CC(C)CN(C(=O)C1=COCCO1)c1c(N)n(Cc2ccccc2)c(=O)[nH]c1=O | 4 | · | -0.2 | 2 | -41%[inhibitor] | 2
CCC(CC)N1CCN(CCc2ccccc2)C(CCO)C1 (configuration not stated) | -3 | 3% | -1.2 | -17 | 10%[15.4 µM] | 3
CC(=O)Nc1ccc(C(=O)OCC(=O)c2ccc(F)cc2)cc1 | -4 | 8% | 0.6 | -4 | 6% | 8
Cc1nc2c(-c3ccc(F)cc3)c(C)nn2c(N2CCOCC2)c1C | 4 | ? | -3.3 | -15 | 1% | 7
O=C(CSc1ccccc1)Nc1nccs1 | 4 | 8% | -3.6 | 0 | -9% | 8
CCOc1ccc(NS(=O)(=O)c2ccc(C(=O)NCc3ccccn3)cc2)cc1 | -3 | 3% | -2.0 | ? | 0% | 3
CC(=O)Oc1ccc(Cl)cc1CN(C(C)=O)C1CCCCC1 | -2 | -12% | -5.7 | -2 | -13% | -15
Cc1cc(=O)[nH]c(N2CCN(Cc3ccccc3)CC2)n1 | 0 | 7% | 6.1 | 0 | -25% | 6
CCn1c(Cc2ccccc2)nnc1SCC(=O)Nc1ccc(S(N)(=O)=O)cc1 | 3 | 6% | 0.3 | 7 | -6% | 5
CCN(C(=O)CSc1n[nH]c(N)n1)c1cccc2ccccc12 | 5 | -7% | -0.9 | -12 | -3% | -1
COC(=O)[C@@]1(Cc2ccccc2)C=C[C@@H](C)N1C(C)=O | 0 | 14% | 0.3 | -37 | · | -20
COc1ccc(C)c(Cn2c(-c3nonc3N)nc3ccccc32)c1 | -4 | 26% | -4.0 | 3 | 11% | -16
CCOc1cc(NC(=S)NC)c(OCC)cc1NC(=O)c1ccco1 | -5 | 2% | -1.9 | -9 | -11% | -4
COc1cc(/C=N/NC(=O)c2ccncc2)cc(OC)c1OC | 1 | 11% | 1.8 | 1 | -10%[15.4 µM] | 8
COc1ccccc1NC(=O)COc1ccc(C(=O)NCc2ccccc2)cc1OC | -27 | ? | 13 | -4 | -18% | -18
O=C1CN(C(=O)COC(=O)COc2ccccc2)c2ccccc2N1 | 8 | 0% | -3.0 | -10 | 28% | ·
O=C(Nc1ccn(Cc2ccccc2)n1)c1ccc2c(c1)OCO2 | -1 | -5% | -3.2 | -5 | ? | 5
Cc1ccc(C(=O)NNC2=NCCC2)cc1 | 3 | 13% | -0.7 | -21 | -39%[inhibitor] | 1
Cc1ccc(C2C3C(=O)N(c4ccc(C)cc4)C(=O)C3N3CCCN23)cc1 (configuration not stated) | 3 | -6% | -5.9 | -17 | ? | ·
CCS(=O)(=O)Nc1ccc(-c2nnc(SCC(=O)c3ccc(NC(C)=O)c(OC)c3)o2)cc1 | -4 | -15% | -2.5 | -6 | ? | -1
CN(c1ccc(C(=O)NCCC2=CCCCC2)cc1)S(C)(=O)=O | 10 | 8% | 0.5 | -8 | 5% | 5
Cc1nc2c3c(sc2c(=O)[nH]1)NC(=O)CC3c1ccccc1Cl (configuration not stated) | 4 | 4% | -4.8 | -9 | -23% | ·
Cc1ccc(S(=O)(=O)N(C)C)cc1NC(=O)COC(=O)CCC(=O)c1ccc(F)cc1 | -2 | -4% | -2.8 | -8 | -7% | 1
Cc1cccc(C2Nc3cccc4cccc(c34)N2)c1 | 2 | 4% | -7.0 | -40 | 0% | ·
CCOC(=O)N1CCN(C(=O)c2cn(CC)c3ccc(S(=O)(=O)N4CCCCC4)cc3c2=O)CC1 | 3 | 2% | -3.6 | -1 | 6% | 7
COc1ccc(Nc2ccccc2N)cc1 | -14 | -2% | ? | 1 | -2%[15.4 µM] | -18
Cc1nn(-c2ccccc2)c(Cl)c1/C=N\NC(=O)c1cncc(Br)c1 | 7 | 5% | 0.5 | 6 | 29%[15.4 µM] | -3
Nc1nc(C(F)(F)F)cc(=O)n1N | 0 | 12% | 3.6 | -1 | 15% | 4
CCCNC(=O)NC(=O)CSc1nc(C)cs1 | 5 | 10% | 0.4 | -5 | -1%[15.4 µM] | 4
CN(Cc1ccccc1)S(=O)(=O)c1ccc(OCC(=O)NCc2ccccn2)cc1 | 1 | -3% | 0.2 | 8 | -47%[inhibitor] | 5
COC(=O)c1c(NC(=O)c2cccc([N+](=O)[O-])c2)sc(C(N)=O)c1C | -12 | -12% | 1.5 | -1 | -28%[15.4 µM] | -1
CCCc1c(OCCCOc2ccc(OCC(=O)O)cc2)ccc(C(C)=O)c1O | -14 | -15% | -3.4 | 20 | · | 0
Cn1c(=O)c2c(nc(CN3CCN(CCO)CC3)n2Cc2ccccc2Cl)n(C)c1=O | 0 | 10% | -8.6 | -2 | ? | 2
Cc1nnc(NC(=O)CSc2nnc(CNC(=O)c3ccccc3)o2)s1 | ? | 4% | 0.7 | 11 | -6% | ?
COc1cc(/C=N/Nc2nc3ccccc3s2)ccc1OC(=O)c1ccccc1F | -10 | 2% | 3.9 | 14 | -13% | 0
COc1cccc(C(=O)Cn2c(Br)nc3c2c(=O)n(C)c(=O)n3C)c1 | 0 | -18% | 4.4 | 10 | 23% | -6
COc1c(Cl)cc(C(=O)O)cc1Cl | 12 | -6% | -1.8 | -18 | · | 10
CN(CCc1ccccn1)C(=O)CC1C(=O)NCCN1Cc1ccccc1C(F)(F)F (configuration not stated) | 0 | 15% | -2.9 | 5 | 0%[15.4 µM] | 0
O=C(N1CCN(c2ccccc2F)CC1)C12CC3CC(CC(C3)C1)C2 | -1 | -1% | 2.4 | -15 | 24% | 3

Ordered by heavy-atom count (high to low): some entries from above.
SMILES | Six1-Eya2 inh | gsp antagonist | D2 agonist | D2 potentiator | gsp ag | CtBP-E1A blk
CCOC(=O)N1CCN(C(=O)c2cn(CC)c3ccc(S(=O)(=O)N4CCCCC4)cc3c2=O)CC1 | 3 | 2% | -3.6 | -1 | 6% | 7
Cn1c(=O)c2c(nc(CN3CCN(CCO)CC3)n2Cc2ccccc2Cl)n(C)c1=O | 0 | 10% | -8.6 | -2 | ? | 2
CCCc1c(OCCCOc2ccc(OCC(=O)O)cc2)ccc(C(C)=O)c1O | -14 | -15% | -3.4 | 20 | · | 0
O=C(N1CCN(c2ccccc2F)CC1)C12CC3CC(CC(C3)C1)C2 | -1 | -1% | 2.4 | -15 | 24% | 3
CN(c1ccc(C(=O)NCCC2=CCCCC2)cc1)S(C)(=O)=O | 10 | 8% | 0.5 | -8 | 5% | 5
COc1ccc(Nc2ccccc2N)cc1 | -14 | -2% | ? | 1 | -2%[15.4 µM] | -18
COc1c(Cl)cc(C(=O)O)cc1Cl | 12 | -6% | -1.8 | -18 | · | 10

Next results.
SMILES | Six1-Eya2 inh | gsp antagonist | D2 agonist | D2 potentiator | gsp ag | CtBP-E1A blk
O=C(NC(=S)Nc1cccc([N+](=O)[O-])c1)c1ccccc1 | -2 | -1% | -5.8 | 2 | ? | ·
O=C(NC1CCCc2c1cnn2-c1ccc(F)cc1F)c1csnn1 (configuration not stated) | 4 | 2% | -1.7 | -12 | 3%[15.4 µM] | 20
O=C(NCC(O)CO)c1csc(Nc2cccc3ccccc23)n1 (configuration not stated) | -7 | 2% | 3.3 | 5 | -5%[15.4 µM] | 4
CN(C)S(=O)(=O)n1cc(/C=C(\NC(=O)c2ccccc2Cl)C(=O)NCCCN2CCOCC2)c2ccccc21 | -3 | -4% | 0.3 | -24 | -1% | -3
COc1ccc(-n2c(C)c([N+](=O)[O-])c3ccc(O)c(CN(C)C)c32)cc1 | 0 | 1% | -1.2 | -9 | 10% | -11
CCSc1cc(C)nc2ncnn12 | 7 | 19% | -2.0 | -12 | 18% | 7
COc1cc(C(=O)Nc2ccc3c(c2)OCO3)ccc1-n1cnnn1 | -8 | 3% | -2.7 | -14 | -7% | -16
Cc1ccc(SCCNCc2ccco2)cc1 | 1 | 1% | -1.7 | -51 | 8% | ·
CCCn1c(C(C)Nc2nc(-c3cccc(Br)c3)cs2)nc2ccccc21 (configuration not stated) | -5 | -13% | -2.0 | -12 | 20% | -3
CN1CCN(CCCNC(=S)Nc2ccc(F)c(Cl)c2)CC1 | 3 | 9% | -0.5 | -5 | -12%[15.4 µM] | 4
COc1ccccc1-c1ccc(/C=C2/C=C(CC(C)C)OC2=O)o1 | 1 | -2% | -3.6 | -9 | -55% | 13
Cc1cc(C(=O)N2CCOCC2)ccc1[N+](=O)[O-] | 9 | 3% | -3.7 | -2 | 21%[15.4 µM] | -5
COc1ccc(NC(=O)CCc2nc3ccccc3[nH]2)cc1 | 5 | 1% | -1.6 | -1 | 6% | 5
Cn1nccc1NC(=O)Nc1cccc(Br)c1 | 21 | 6% | -0.7 | -18 | 2% | 6
CC(C)Oc1ccc(/C(O)=C2/C(=O)C(=O)N(CCN(C)C)C2c2ccco2)cc1 (configuration not stated) | -3 | 0% | -2.9 | 2 | 18% | -5
COc1cc2nc(Cl)nc(N3CCCCC3)c2cc1OC | -9 | 1% | -3.0 | -6 | 34% | -10
N#Cc1ccccc1NC(=O)COC(=O)COc1ccccc1[N+](=O)[O-] | 7 | -2% | -0.1 | -1 | 9%[15.4 µM] | 1
CS(=O)(=O)N1CCN(c2c(Cl)cccc2[N+](=O)[O-])CC1 | -1 | 2% | -0.9 | -7 | -33%[inhibitor] | 11
Cc1ccc(NC(=O)CN(C)Cc2nc3c(Br)cc(Br)cc3c(=O)[nH]2)cc1 | 2 | 6% | -4.1 | 10 | 22%[15.4 µM] | -2
Cc1ccc(NC(=O)c2oc3ccccc3c2C)c([N+](=O)[O-])c1 | 2 | 1% | -3.5 | -2 | -22% | -21
O=C(NCC1OCCc2ccccc21)c1ccc(NC(=O)c2cccc(Br)c2)cc1 (configuration not stated) | 2 | -27% | -0.3 | 22 | 29% | -14
O=S(=O)(Nc1nc2ccccc2nc1NCc1ccco1)c1ccccc1 | 9 | -4% | -3.7 | -9 | ? | -1
CC(C)(C)N(Cc1ccccc1)C(=O)COC(=O)CNC(=O)c1ccco1 | 9 | -8% | 3.4 | 11 | -14% | -10

Entries of single compounds, looked up by structure. Screens in order: Six1-Eya2 inh	gsp antagonist	D2 agonist	D2 potentiator	gsp ag	CtBP-E1A blk
Results for `Cc1nc2c3c(sc2c(=O)[nH]1)NC(=O)CC3c1ccccc1Cl` (configuration not stated) → 4	4%	-4.8	-9	-23%	·
Results for `O=C(Nc1ccn(Cc2ccccc2)n1)c1ccc2c(c1)OCO2` → -1	-5%	-3.2	-5	?	5
Results for `COc1ccc(C)c(Cn2c(-c3nonc3N)nc3ccccc32)c1` → -4	26%	-4.0	3	11%	-16
